miR-21 reporter: miR-21 reporter, rising signal; HeLa miR-21 FLuc reporter, luciferase, 48 h; Potency, µM (top dose mostly 38.3 µM), for inactives: top-dose reporter change, positive = more light; 340,000 tested, under 10 active; AID 2288; active = well fitted rising curve with a large enough effect; inconclusive = small, poorly fitted or top-dose-only effect; inactive = no such curve, though single readings can be large or run the other way;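 further: % of control where 0% means no effect; miR-21 action dims this reporter so a rising signal means less miR-21 action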
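HeLa cells stably expressing CMV-driven firefly luciferase with a downstream miR-21 binding sequence, endogenously expressing miR-21, were treated with titrations (up to about 40uM final) for 48 hours at 37 degree Celsius. Luciferase luminescence was read after lysis.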
Rango dissoc inh: inhibition of RanGTP-driven Rango-importin beta dissociation. Biochemical FRET Rango-importin beta, RanGTP-induced dissociation. Potency, µM (series often up to 46.1 µM), without a hit: at the highest dose activity change, negative = inhibition. 340,000 tested, 0.071% active. AID 540253; active means falling FRET ratio curve, often poorly fitted, with flat reads before Ran was added; inconclusive means other falling curves, or compound fluorescence or quenching; inactive means flat or rising ratio curve;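 further: potency means the concentration at half of the fitted maximal effect; % of control where 0% means no effect; nearly all actives have a fitted effect of over 45% in size; -100% = wells without RanGTP and RCC1; the record marks most hits as doubtful in a second field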
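FRET read at 45 min, room temperature: inhibitors block the CFP/YFP signal rise when RanGTP (0.6 uM Ran, 2 mM GTP, 0.2 uM RCC1) frees Rango (0.1 uM) from importin beta (0.25 uM). Pre-read after 5 min compound exposure flags interference.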
Rango-impB inh: Rango-importin beta binding inhibition; Q14974; Rango CFP/YFP FRET sensor + importin beta, 45 min; Potency, µM (series often up to 92.2 µM), for inactives: at the highest dose inhibition of complex formation; 340,000 tested, 0.031% active; AID 540263; active = rising FRET ratio curve, often small or poorly fitted; inconclusive = mostly compound fluorescence or quenching in the first reads; inactive = flat curves in all reads;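 further: potency means the concentration at half of the fitted maximal effect; 0% = DMSO wells and 100% = buffer wells lacking importin beta; nearly all actives have a fitted effect of over 15% in size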
Target sequence (Q14974 whole entry, looked up): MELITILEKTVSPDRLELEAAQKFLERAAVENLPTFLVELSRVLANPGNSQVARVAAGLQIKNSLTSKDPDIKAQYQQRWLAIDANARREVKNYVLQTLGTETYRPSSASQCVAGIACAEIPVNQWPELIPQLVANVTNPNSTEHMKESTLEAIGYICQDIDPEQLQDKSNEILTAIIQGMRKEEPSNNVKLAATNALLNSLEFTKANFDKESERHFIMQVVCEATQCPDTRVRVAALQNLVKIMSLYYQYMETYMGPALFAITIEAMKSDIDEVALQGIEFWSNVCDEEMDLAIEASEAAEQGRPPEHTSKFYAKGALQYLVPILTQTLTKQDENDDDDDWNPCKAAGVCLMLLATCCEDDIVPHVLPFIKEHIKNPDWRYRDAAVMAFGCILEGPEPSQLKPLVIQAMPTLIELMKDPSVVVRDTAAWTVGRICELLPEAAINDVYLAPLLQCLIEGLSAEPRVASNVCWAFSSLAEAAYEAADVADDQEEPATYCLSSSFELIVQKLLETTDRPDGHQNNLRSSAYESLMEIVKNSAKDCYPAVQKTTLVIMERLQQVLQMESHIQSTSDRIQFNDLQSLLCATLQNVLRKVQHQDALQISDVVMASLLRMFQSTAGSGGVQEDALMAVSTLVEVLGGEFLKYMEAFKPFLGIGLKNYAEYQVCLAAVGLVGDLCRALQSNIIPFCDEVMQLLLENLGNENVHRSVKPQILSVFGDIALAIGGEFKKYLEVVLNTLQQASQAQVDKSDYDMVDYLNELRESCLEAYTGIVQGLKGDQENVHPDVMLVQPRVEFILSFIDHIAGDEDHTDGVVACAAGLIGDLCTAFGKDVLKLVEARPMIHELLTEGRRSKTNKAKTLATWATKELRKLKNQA
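FRET biosensor (snurportin 1 IBB flanked by EYFP and cerulean), 50 nM, with compound 5 min, then 0.125 microM importin beta in PBS, 1 mM DTT, 0.02% Tween-20, 0.1% BSA. CFP/YFP ratio read after 45 min at room temperature; pre-read flags interference.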
GLA inh pH 4.5: inhibitors of human alpha-galactosidase A at pH 4.5 | P06280 | purified enzyme, 4-MU-alpha-Gal fluorescence, pH 4.5 | activity change, negative = inhibition, % at 105 µM | 230,000 tested, under 10 active | AID 1467; inconclusive = small, poorly fitted or top-dose-only inhibition, or a rising curve; inactive = flat fitted curve, though single readings scatter; no compound was filed as active;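 further: 0% = full activity with enzyme and -100% = basal without enzyme; dose as in the result columns while the protocol names 77 µM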
Starred values were filed as active, the others as inactive; u = inconclusive; x = no result given; & = joins results of further samples. These rows are one share of the data. The share of hits here may be higher or lower than overall.

Results follow in this order: miR-21 reporter | Rango dissoc inh | Rango-impB inh | GLA inh pH 4.5
> CN(CCOc1ccc(Cl)cc1)C(=O)C1CCN(C(=O)c2ccc(Cl)cc2)CC1
  12% | 14% | 1.5% | x
> CCOC(=O)c1sc(C)c2c(=O)n(CCCN3CCOCC3)cnc12
  -3% | -6% | -0.2% | -2
> COc1ccc(S(=O)(=O)N(C)C[C@H]2Oc3ccc(NS(=O)(=O)c4cccs4)cc3CC(=O)N([C@H](C)CO)C[C@H]2C)cc1
  x | -3% | -2.0% | x
> Cc1cc2ccccc2n1CCC(=O)O
  -2% | -13% | u | 5
> CCn1c(SCC(=O)c2ccc(OC)cc2)nnc1C1CC1
  -16% | -4% | -0.3% | 2
> Nc1nnnn1CC(=O)N/N=C/C=C/c1ccccc1
  5% | -2% | 1.9% | 0
> Cn1c(=O)c2c(nc(-c3ccccc3)n2C)n(Cc2ccccc2)c1=O
  -9% | 17% | 0.2% | 4
> CC(C)(C)c1ccc(-c2noc(CCC(=O)Nc3cccnc3)n2)cc1
  u | 8% | 0.7% | x
> COc1ccc(NC(=O)CCNC(=O)Cn2ccc3ccccc3c2=O)c(OC)c1
  -5% | -7% | -8.1% | -12
> Cc1nnc(SCC(=O)Nc2cc(C(C)(C)C)nn2-c2ccccc2)s1
  -4% | -10% | -0.2% | -1
> COc1ccc(S(=O)(=O)NCC(c2cccs2)N2CCc3ccccc3C2)cc1 (stereo not given)
  x | 5% | -2.3% | x
> CCn1c(CSc2nc(C)cc(C)n2)nnc1SCC(=O)N1CCCc2ccccc21
  1% | 14% | -3.5% | 6
> CCCNC(=O)c1onc(CSc2ccc(Cl)cc2)c1C(=O)NC(C)C
  x | u | -3.3% | x
> CC(=O)N1CCN(CC(=O)Nc2ccc3c(c2)CCC3)CC1
  -2% | -7% | -0.3% | 6
> COc1ccccc1N1CCN(C(=O)c2sc3nc4n(c(=O)c3c2C)CCC4)CC1
  -4%&-1% | 11% | u | x
> CC(NC(=O)COC(=O)C1=COCCO1)C12CC3CC(CC(C3)C1)C2 (stereo not given)
  -24% | 1% | -0.9% | 5
> O=C(CNC(=O)C(c1ccccc1)c1ccccc1)N/N=C\c1ccc(C(=O)O)cc1
  0% | 6% | 1.3% | x
> COc1ccc(N2CC(C(=O)Nc3nnc(SCC(=O)NCc4ccco4)s3)CC2=O)cc1 (stereo not given)
  -2% | -23% | 1.0% | x
> COc1ccc(NC(=O)CN(C)CC(=O)NC2CCC(C)CC2)cc1 (stereo not given)
  x | 2% | -0.2% | x
> COc1ccc(OCC(=O)N(Cc2ccco2)C2CCS(=O)(=O)C2)cc1 (stereo not given)
  -2% | -3% | -2.6% | 3
> CCN(Cc1ccccc1)C(=O)c1cc(-c2ccc(OC)c(OC)c2)nc2ccccc12
  -6% | 1% | -0.9% | x
> CCN(CC)C(=O)[C@H]1C[C@H](CC(=O)NC/C=C(\C)CCC=C(C)C)C(=O)N2CCc3c([nH]c4ccc(Cl)cc34)[C@]12C
  x | 22% | -2.2% | x
> N/C(=N\OC(=O)N1CCOCC1)c1ccc(Br)cc1
  4% | 1% | -1.5% | 1
> COc1ccc(NC(=O)c2oc3ccccc3c2NC(=O)c2ccc3c(c2)OCO3)cc1
  -12% | -5% | 0.5% | -4
> COc1ccc2nc(Cl)c(C3CC(c4ccco4)=NN3C(=O)CCC(=O)O)cc2c1 (stereo not given)
  -5% | 4% | -1.5% | 8
> O=C(N/N=C/C=C\c1ccccc1[N+](=O)[O-])c1cccnc1
  -7% | 1% | 0.0% | -3
> COc1ccc([C@@H]2[C@@H]3C(=O)N(C(C)(C)C)C(=O)[C@@H]3[C@]3(C)C(=O)N(c4cccc(Br)c4)C(=O)N23)cc1
  -1% | -4% | -5.2% | x
> CCOc1cc(NC(=S)NCc2ccco2)c(OCC)cc1NC(=O)C1CC1
  -6% | -2% | -0.9% | 9
> COc1ccc(N2CCN(Cc3nc4c(c(=O)n(C)c(=O)n4C)n3Cc3cccc(C)c3)CC2)cc1
  5% | 6% | u | 9
> Cc1nn(CCCC(=O)NCCCN2CCN(C)CC2)c(=O)c2c1sc1ccccc12
  -7% | 4% | 0.7% | x

5 structures already listed, sorted by number of heavy atoms, lowest first.
Results follow in this order: miR-21 reporter | Rango dissoc inh | Rango-impB inh | GLA inh pH 4.5
> COc1ccc(NC(=O)CN(C)CC(=O)NC2CCC(C)CC2)cc1 (stereo not given)
  x | 2% | -0.2% | x
> COc1ccccc1N1CCN(C(=O)c2sc3nc4n(c(=O)c3c2C)CCC4)CC1
  -4%&-1% | 11% | u | x
> O=C(CNC(=O)C(c1ccccc1)c1ccccc1)N/N=C\c1ccc(C(=O)O)cc1
  0% | 6% | 1.3% | x
> CCN(Cc1ccccc1)C(=O)c1cc(-c2ccc(OC)c(OC)c2)nc2ccccc12
  -6% | 1% | -0.9% | x
> COc1ccc([C@@H]2[C@@H]3C(=O)N(C(C)(C)C)C(=O)[C@@H]3[C@]3(C)C(=O)N(c4cccc(Br)c4)C(=O)N23)cc1
  -1% | -4% | -5.2% | x

Remaining list, next part:
Results follow in this order: miR-21 reporter | Rango dissoc inh | Rango-impB inh | GLA inh pH 4.5
> COc1cccc(C(=O)NNC(=O)C(=O)N2CCCCC2)c1
  -7% | 15% | -1.8% | 7
> COc1ccc(CCn2c(=N)c(C(=O)NCc3ccco3)cc3c(=O)n4ccccc4nc32)cc1OC
  x | u | u | x
> O=C(/C=C/Nc1nccs1)C(F)(F)Cl
  -31% | -8% | -2.3% | 3
> COc1ccccc1OCCCOc1cccc(/C=C2\SC(=O)NC2=O)c1
  -4% | 15% | -5.1% | x
> Cc1nn2c(-c3ccccn3)ccnc2c1Br
  -7% | 23% | -6.8% | 0
> COc1ccc(S(=O)(=O)Nc2ccc3c(c2)C(=O)N([C@H](C)CO)C[C@H](C)[C@@H](CN(C)C(=O)Nc2ccc(C(F)(F)F)cc2)O3)cc1
  x | 11% | -0.8% | x
> Cc1ccccc1NC(=O)CCN1CCc2ccccc2C1
  -5% | 0% | -0.6% | -14
> COc1ccc(OCC(O)CNC(=O)c2cccs2)cc1 (stereo not given)
  -3% | -1% | -0.3% | 1
> CC1CCCC(NC(=O)c2ccc(COc3ccccc3)o2)C1C (stereo not given)
  13% | -3% | 0.0% | x
> COc1ccc(CCN2C(=O)CC(Cc3ccccc3)C2=O)cc1OC (stereo not given)
  -7% | 17% | -0.4% | -1
> Cc1ccc(S(=O)(=O)N2CCN(C(=O)COC(=O)c3ccccn3)CC2)c(C)c1
  x | -6% | -0.2% | x
> CC(C)N(C(=O)CSc1nc2c([nH]1)c(=O)n(C)c(=O)n2C)c1ccccc1
  1% | 10% | -1.3% | -6
> CC(C)CNC(=S)NNC(=O)c1ccc2c(c1)OCO2
  -18% | 7% | -0.6% | 4
> Cc1nc2ccccc2nc1OCc1cccc([N+](=O)[O-])c1
  -2% | 2% | -3.1% | -15
> CCOC(=O)C1CCN(C(=O)CNC(=O)c2nn(-c3ccc(OC)cc3OC)c(=O)c3ccccc23)CC1
  -16% | 15% | -3.5% | x
> Cc1ccc(-c2nc3ncccc3o2)cc1NC(=O)c1sc2ccccc2c1Cl
  -2% | 0% | -1.6% | 3
> CCCN(CC(=O)c1cc(C)n(C)c1C)S(=O)(=O)c1cccc(C(F)(F)F)c1
  8% | -15% | u | -9
> Cc1cccc(NC(=O)c2ccccc2C(=O)O)c1
  -5% | -3% | -0.2% | -11
> O=C1CC(Sc2ccc(Cl)cc2)C(=O)N1c1ccc2c(c1)OCCO2 (stereo not given)
  16% | -3% | -1.5% | 5
> CC(C)(C)c1ccc(OCC(=O)N2CCN(C=O)CC2)cc1
  -14% | 7% | 3.6% | 1
> COc1ccccc1N1CCN(S(=O)(=O)c2cccc(F)c2)CC1
  -1% | 5% | -0.5% | -6
> Cn1c2ccccc2c2nnc(SCN3C(=O)c4ccccc4C3=O)nc21
  -5% | x | x | -2
> CN(C)CCNC(=O)c1onc(CSc2nc3ccccc3[nH]2)c1C(=O)NCCN(C)C
  2% | 9% | 2.9% | x
> CC1CCCCN1C(=O)CSc1nnc(-c2cccs2)o1 (stereo not given)
  -53% | 0% | 4.5% | x
> CCOC(=O)C1=C(C)NC2=C(C(=O)CCC2)C1c1ccc(N(C)C)cc1 (stereo not given)
  -13% | 15% | -2.6% | -2
> CCN(CC(=O)Nc1ccc(OC)cc1)C(=O)c1ccc(=O)n(Cc2ccccc2)n1
  x | 3% | -2.5% | x
> CC(=O)Nc1ccc(S(=O)(=O)NC(C)C(=O)NCC(c2ccco2)N(C)C)cc1 (stereo not given)
  x | -1% | -5.2% | x
> O=C(O)c1cccc2c1C(=O)c1ccc(N3CCCCC3)cc1S2(=O)=O
  x | u | u | x
> CCCN(C#N)c1nc(NCC)nc(NC(C)C)n1
  -9% | -15% | u | 3
> Fc1ccc(OCCCCCCN2CCCC2)cc1
  -13% | 3% | -4.3% | 1

Reformatted with values ahead of the structure: part of the list above.
miR-21 reporter	Rango dissoc inh	Rango-impB inh	GLA inh pH 4.5	SMILES
-16%	15%	-3.5%	x	CCOC(=O)C1CCN(C(=O)CNC(=O)c2nn(-c3ccc(OC)cc3OC)c(=O)c3ccccc23)CC1
-13%	15%	-2.6%	-2	CCOC(=O)C1=C(C)NC2=C(C(=O)CCC2)C1c1ccc(N(C)C)cc1 (stereo not given)
-31%	-8%	-2.3%	3	O=C(/C=C/Nc1nccs1)C(F)(F)Cl

Continuation.
Results follow in this order: miR-21 reporter | Rango dissoc inh | Rango-impB inh | GLA inh pH 4.5
> CSc1ccccc1NC(=O)CN(C)S(=O)(=O)c1ccc(F)cc1
  -1% | -3% | 0.3% | 6
> Cc1cc(/C=N\O)c(C)n1-c1ccncc1
  -3% | 4% | 5.5% | -4
> CN(C)Cc1ccc(CNC(=O)COc2ccc3ccccc3c2)cc1
  -18% | -14% | 5.3% | x
> COc1cc(/C=C/C(=O)O)cc(S(=O)(=O)N(C)CCO)c1OC
  -5% | 1% | 0.7% | 6
> Cn1c2ccccc2c(=O)c2cc(C#Cc3cccc(N)c3)ccc21
  x | u | u | x
> CC1=C(C)CC(C(=O)N2CCN(Cc3ccc4c(c3)OCO4)CC2)C(C(=O)O)C1 (stereo not given)
  -4% | 4% | -0.2% | 8
> OCCN(CCO)c1ccc2ccccc2c1
  -11% | 1% | 1.1% | u
> O=C(c1ccccc1)N1CCCCC(Sc2nnnn2-c2ccccc2)C1=O (stereo not given)
  -16% | 2% | -6.8% | -8
> CCC(C)n1c(=N)c(C#N)cc2c(=O)n3cccc(C)c3nc21 (stereo not given)
  -1% | u | u | 1
> O=c1cc(-c2ccccc2)nc2nc(-c3ccco3)[nH]n12
  1% | u | 0.3% | -3
> O=S(=O)(c1cccc(-c2n[nH]c(=S)n2Cc2ccccc2)c1)N1CCOCC1
  4% | 8% | 1.8% | -11
> CN(C)C(=O)c1ccc(COc2ccccc2Br)o1
  -53% | 5% | -0.6% | 0
> CCOC(=O)CNC(=O)CSc1nc(C)cc(C)c1C#N
  -10% | 4% | 1.9% | 4
> Cc1cc(C(=O)OC(C(=O)Nc2ccc(C)c(Cl)c2)c2ccccc2)c(C)o1 (stereo not given)
  -8% | -5% | 1.1% | 2
> CCOCc1nnc(NC(=O)CSc2ccccc2)s1
  -9% | 10% | -3.6% | 5
> Cc1c(C(=O)N(C)CCOc2ccccc2)oc2c(Cl)cccc12
  x | 5% | 0.9% | x
> Cc1ccc(CS(=O)(=O)CCC(=O)NCC2CCCO2)cc1 (stereo not given)
  2% | 4% | 3.3% | -5
> Cc1ccccc1NS(=O)(=O)c1c(C(=O)N2CCCCCC2)c(C)n(C)c1C
  -1% | 26% | 4.0% | x
> NC(=O)C1CCN(C(=O)NC2CC(=O)N(c3ccc4c(c3)OCCO4)C2)CC1 (stereo not given)
  x | -2% | -3.0% | x
> CCOC(=O)N1CCN(C(=O)c2ccc3c(=O)n(CCC4=CCCCC4)c(=O)[nH]c3c2)CC1
  21% | 26% | 0.8% | 11
> Cc1cc(NC(=O)CCC(=O)N(C2CC2)C2(C(=O)NC3CCCC3)CCC(C)CC2)no1 (stereo not given)
  -1% | 0% | -5.1% | -2
> COc1cccc(NC(=O)c2ccc3snnc3c2)c1
  -36% | 0% | -0.6% | 3
